Assay outcomes from PubChem BioAssay.
VACV Venus inh – vaccinia inhibition (Venus reporter); Vaccinia virus Venus reporter expression, fluorescence; Potency, µM (series often up to 36.5 µM), without a hit: at the highest dose activity change, negative = inhibition, hits mostly inhibitors; AID 720580; 330,000 compounds, 0.46% hits; active means well fitted inhibition curve with a large enough effect; inconclusive means small, poorly fitted or top-dose-only effect; inactive means no such curve, though single readings can be large or run the other way; tested in A549 cells; also: nearly all actives have a fitted effect of over 30% in size; inactives centre near -10
VACV mCherry inh – inhibitors of vaccinia virus infection (mCherry reporter signal); Vaccinia virus mCherry reporter infection, fluorescence; about a quarter of the inactives have no number; Potency, µM (highest dose often 36.5 µM), without a hit: top-dose activity change, negative = inhibition, actives largely listed as inhibitors; 310,000 compounds, 0.63% hits; AID 720579; active = well fitted inhibition curve with a large enough effect; inconclusive = small, poorly fitted or top-dose-only effect; inactive = no such curve, though single readings can be large or run the other way; tested in A549 cells; also: nearly all actives have a fitted effect of over 35% in size; inactives centre near -10
* = called active by the depositor; i = inactive; ? = inconclusive; . = no result given; [ ] = remark or other dose. % is scaled to controls: 0 for no effect and ±100 for the full control effect; potency is read from the fitted curve at half-maximal effect. Compounds as they come, and some 0.87% of all compounds hit somewhere here.

SMILES | VACV Venus inh | VACV mCherry inh
COc1ccccc1-c1nc(NCc2cnc(C)cn2)c2ccccc2n1 | 14% | 8%
CC(=O)c1ccc(NC(=O)C2CC(=O)N(C(C)C)C2)cc1 (centres undefined) | -17% | i
CCOC(=O)C1(CCCc2ccccc2)CCN(C(=O)C(C)n2cncn2)CC1 (centres undefined) | -17% | i
CCN(CC(=O)N1CCOCC1)S(=O)(=O)c1ccc(Cl)cc1 | -12% | -11%
COc1ccc(-c2coc3c(OC)c(OC)cc(OC)c3c2=O)cc1 | -22% | -3%
O=C(O)c1ccc(COc2ccccc2[N+](=O)[O-])o1 | 0% | -9%
CCOC(=O)C1CCN(C(=O)C2CCN(S(=O)(=O)c3c(C)noc3/C=C/c3ccc(C)cc3)CC2)CC1 | -15% | -18%
COc1ccc(C(=O)OCCOc2ccccc2C(C)=O)c(O)c1 | -17% | -17%
O=C(CSc1nnnn1C1CC1)Nc1cc(S(=O)(=O)N2CCCC2)ccc1Cl | -3% | -10%
Cc1ccc(Cl)c(NC(=O)CN(C)CC(=O)Nc2ccc(F)c(F)c2F)c1Cl | -7% | -11%
CC(C)OP(=O)(OC(C)C)C(Nc1ccccn1)c1ccc(F)cc1 (centres undefined) | -6% | i
COc1ccc(C2CC(=O)Oc3ccc(OC)cc32)cc1 (centres undefined) | -11% | -5%
CCN(CC)C(=S)NC(=O)Cc1ccccc1 | -18% | -9%
COc1cc(/C=C2/SC(=S)N(CCC(=O)Nc3ccccc3)C2=O)cc(OC)c1OC | 1% | -5%
Cc1cc(OCC(=O)Nc2ccc(S(=O)(=O)N3CCN(C)CC3)cc2)ccc1Br | -6% | i
CN(Cc1ccccc1F)C(=O)c1ccccc1Sc1ccccc1C#N | -3% | i
CCOc1ccccc1N(CC(=O)NCCc1ccccc1)C(=O)CCC(=O)Nc1ccccn1 | -12% | -9%
CCCN(C(=O)c1cc(Cl)nc2ccccc12)C1CCS(=O)(=O)C1 (centres undefined) | 5% | i
COc1ccc(CCNc2nc(N3CCCCC3)nc(N3CCCCC3)n2)cc1OC | -7% | .
CCCc1nnc2n1N=C(c1ccc(OC)c(OC)c1)CS2 | -21% | -9%
COc1cc(OC)cc(OCC(O)Cn2cnc(-c3ccccc3)c2)c1 (centres undefined) | -20% | -1%
C/C(=N\NC(=O)c1ccoc1C)c1cccnc1 | -8% | -16%
COc1ccc2[nH]c(=O)c(CN(Cc3cccnc3)C(=S)NCC3CCCO3)cc2c1 (centres undefined) | -1% | -5%
COc1ccc(C(=O)/C=C/C(=O)N(Cc2ccccc2)C(C(=O)NC2CCCCC2)c2ccncc2)c(O)c1 (centres undefined) | -22% | i

Individual results from the entries so far:
VACV mCherry inh result of O=C(CSc1nnnn1C1CC1)Nc1cc(S(=O)(=O)N2CCCC2)ccc1Cl = -10%
VACV Venus inh result of COc1ccc(C2CC(=O)Oc3ccc(OC)cc32)cc1 (centres undefined) = -11%
VACV mCherry inh result of C/C(=N\NC(=O)c1ccoc1C)c1cccnc1 = -16%
VACV mCherry inh result of COc1ccc(C(=O)OCCOc2ccccc2C(C)=O)c(O)c1 = -17%
VACV Venus inh result of CC(=O)c1ccc(NC(=O)C2CC(=O)N(C(C)C)C2)cc1 (centres undefined) = -17%

New compounds follow:
SMILES | VACV Venus inh | VACV mCherry inh
Nc1nc(-c2sc3nc4c(cc3c2N)CCCC4)nc(N2CCOCC2)n1 | -15% | -18%
COc1ccc([N+](=O)[O-])cc1NC(=O)Nc1ccc(OC)c(OC)c1 | ? | ?
COc1ccccc1CCNC(=O)C1(c2cccs2)CCOCC1 | -8% | -6%
CC(=O)N1SC(N)=NC1c1ccccc1 (centres undefined) | -13% | -14%
O=C(CSc1nnc(-c2ccccn2)n1Cc1ccco1)c1ccccc1 | -15% | -12%
COC(=O)C1=C(c2ccc(Cl)c(C(F)(F)F)c2)C[C@@H]2CC[C@H]1N2C(=O)NCc1cc(C)oc1C(F)(F)F | ? | -7%
Cc1ccc(S(=O)(=O)n2nc(-c3ccco3)nc2N)cc1 | -10% | -13%
CCOc1ccc(S(=O)(=O)N(CC)CC(=O)N2CCOCC2)cc1C | -13% | ?
Cn1c(=O)c2cc(S(=O)(=O)NCCC(=O)N3CC=C(c4ccccc4)CC3)ccc2n(C)c1=O | -20% | -22%
CCN(CC)Cc1oc(CO)cc(=O)c1O | -9% | -27%
Cc1cccnc1NC(=O)c1ccc(S(=O)(=O)N2CCCC2)cc1 | -7% | -24%
Cn1cc(C(=O)OCC(=O)Nc2ccccc2)c2ccccc21 | -7% | -9%
O=C(Cc1ccccc1)OC(COCc1ccccc1)CN1CCOCC1 (centres undefined) | -10% | .
COc1ccc2[nH]cc(CCNC(=O)Cc3ccc(Br)cc3)c2c1 | -29% | ?
CC1=C(C(=O)OC(C)C)C(c2ccco2)NC(=O)N1 (centres undefined) | -3% | .
Nc1nc2ccccc2n1CCOc1ccc(Cl)cc1 | -24% | -26%
C(=NOCCc1ccccc1)c1cccnc1 | -14% | -20%
CC(C)C[C@@H]1COc2cc(N3CCC[C@@H]3CO)ccc2S(=O)(=O)N1 | -5% | -4%
CCn1c(=O)cc(SCC(=O)NCc2ccccc2OC)c2ccccc21 | -10% | -20%
Cc1ccc(S(=O)(=O)NC(C(=O)N2CCOCCOCCOCCOCC2)c2ccccc2)cc1 (centres undefined) | 0% | 2%
Cc1ccc(CNC(=O)/C=C/c2ccc(S(=O)(=O)NCc3ccco3)cc2)cc1 | -14% | -1%
CC(C)C1C(=O)N(Cc2cn(CCC3OCCO3)nn2)CCS(=O)(=O)N1Cc1ccc(-c2ccncc2)cc1 (centres undefined) | -20% | ?
COc1cc(NC(=O)c2cc([N+](=O)[O-])ccc2N2CCOCC2)ccc1NC(=O)c1ccco1 | -16% | -6%
COC(=O)Cc1c(O)ccn(Cc2ccccc2OC)c1=O | -2% | .
O=C(Nn1c(-c2ccc(Br)cc2)nc2ccccc2c1=O)c1cccnc1 | 7% | 0%
COC(=O)[C@]12CCCCC=C1N(Cc1ccco1)C(=O)[C@H](CC(=O)NCCc1ccccc1OC)C2 | -8% | 21%
Cc1cc(C)c2[nH]c(C(=O)Nc3ccc(F)cc3Br)cc2c1 | -3% | -9%
Cc1ccc(NC(=O)c2cc(-c3ccc(C)o3)nc3ccccc23)nc1 | -4% | -14%
C[C@H](CO)N1C[C@H](C)[C@@H](CN(C)C(=O)NC2CCCCC2)Oc2c(NS(=O)(=O)c3cn(C)cn3)cccc2C1=O | 0% | -10%
CC(CNC(=O)CCc1ccccc1)NC(=O)CCc1ccccc1 (centres undefined) | 1% | i
O=[N+]([O-])c1ccc(NNC(=S)Nc2ccccc2)cc1 | ? | ?
O=C(O)CCc1ccc(-c2ccc(Cl)cc2)n1CCC(=O)O | 1% | -13%
Cc1cc(Cl)cc(C)c1OCC(=O)O | -11% | i
CCn1c(=O)cc(SCC(=O)NCC2CCCO2)c2ccccc21 (centres undefined) | -7% | -15%
CCOc1ccccc1NC(=O)CSc1ncc(S(=O)(=O)c2ccc(C)c(C)c2)c(N)n1 | -12% | -12%
Clc1cccc(CNCCNCc2cccc(Cl)c2)c1 | -1% | -7%

Entries of single compounds, quoted from the list:
Cc1cccnc1NC(=O)c1ccc(S(=O)(=O)N2CCCC2)cc1 is entered as VACV Venus inh = -7%; VACV mCherry inh = -24%
CCn1c(=O)cc(SCC(=O)NCc2ccccc2OC)c2ccccc21 is entered as VACV Venus inh = -10%; VACV mCherry inh = -20%
Cc1ccc(CNC(=O)/C=C/c2ccc(S(=O)(=O)NCc3ccco3)cc2)cc1 is entered as VACV Venus inh = -14%; VACV mCherry inh = -1%

Other entries follow.
SMILES | VACV Venus inh | VACV mCherry inh
O=C(Nc1ccncc1)C1C(=O)c2ccccc2N(Cc2ccccc2)C1=O (centres undefined) | ? | -8%
Cc1ccc(C(C)C)c(OCC(=O)NS(=O)(=O)c2ccc(Cl)cc2)c1 | -10% | -19%
COc1ccc(C(CC(=O)NCCN2CCOCC2)NS(=O)(=O)c2ccc(C)cc2)cc1 (centres undefined) | -8% | ?
Cc1[nH]c2ccccc2c1C(=O)CSc1cccc[n+]1[O-] | -11% | i
CC1(C)CC(=O)C(=CN2CCN(C(=O)c3ccco3)CC2)C(=O)C1 | -11% | i
O=C(O)CCC(=O)N1CCOc2ccc(Cl)cc21 | -9% | .
CCOC(=O)c1nnn(-c2nonc2-n2cccc2)c1CN1CCCCC1 | -25% | .
O=C(Nc1cccnc1)C1CCCN1S(=O)(=O)c1ccc(Cl)c(Cl)c1 (centres undefined) | 11% | 21%
COc1cc(Cn2c(-c3ccc(O)c(OC)c3)nc3ccccc32)ccc1O | -25% | ?
Cc1ccc(NC(=O)CSc2ncn[nH]2)cc1C | -15% | -14%
Cc1nnc(SCC(=O)NCc2ccccc2Cl)c2nn(-c3ccccc3)c(C)c12 | -17% | -19%
COC(=O)C1=C(c2cccc(Cl)c2)C[C@@H]2CC[C@H]1N2C(=O)NCC1CC1 | -25% | -7%

Part of the list above in order of length of the SMILES, smallest number first.
SMILES | VACV Venus inh | VACV mCherry inh
Cc1ccc(NC(=O)CSc2ncn[nH]2)cc1C | -15% | -14%
Cc1[nH]c2ccccc2c1C(=O)CSc1cccc[n+]1[O-] | -11% | i
O=C(Nc1cccnc1)C1CCCN1S(=O)(=O)c1ccc(Cl)c(Cl)c1 (centres undefined) | 11% | 21%
Cc1ccc(C(C)C)c(OCC(=O)NS(=O)(=O)c2ccc(Cl)cc2)c1 | -10% | -19%

New compounds follow
SMILES | VACV Venus inh | VACV mCherry inh
Cc1c(Cl)ccc2sc(N3CCN(C(=O)C(C)C)CC3)nc12 | -3% | -16%
COc1ccc(OCCN2CCCC2)cc1Nc1nnc(Cl)c(Nc2ccccc2S(C)(=O)=O)n1 | ? | -23%
CCCN1C(=O)c2ccc(C(=O)Nc3ccccc3C(=O)O)cc2C1=O | 0% | -12%
COc1ccc(C)cc1N(CC(=O)Nc1ccc(S(=O)(=O)N2CCCC2)cc1)S(C)(=O)=O | -16% | -7%
O=C(COC(=O)c1cnccn1)Nc1ccc2c(c1)OCO2 | -11% | .
N#CC1(c2ccccc2)CCN(C2CC(=O)N(c3cccc(F)c3)C2=O)CC1 (centres undefined) | -5% | 7%
CC(=O)N(C)C[C@H]1Oc2cc(Br)ccc2S(=O)(=O)N([C@H](C)CO)C[C@@H]1C | -17% | -15%
Cc1ccc([C@H]2C(C(=O)O)=CCN2S(=O)(=O)c2ccc(C)cc2)cc1 | -9% | i
CN1C(=O)Cc2cc(S(=O)(=O)CCC(=O)Nc3ccc(OC(F)(F)F)cc3)ccc21 | -11% | -18%
COc1ccc2nc(SCC(=O)Nc3cc(OC)c(OC)cc3C(=O)O)c(C)cc2c1 | -20% | -6%
COc1cc(OC)c(C(=O)Oc2ccc3c(c2)OCO3)cc1OC | -3% | -4%
CC(C)=CC(O)C/C(C)=C/COc1ccc2ccc(=O)oc2c1 (centres undefined) | 10µM* | 10µM*
COc1ccc(/C=N/NC(=O)CCc2n[nH]c(=O)[nH]c2=O)cc1OC | -2% | -20%
CC(=O)c1ccc(NC(=O)CSc2nnc(NC(=O)NC3CCCCC3)s2)cc1 | -5%[7.34 µM] | -2%[7.34 µM]
CCOC(=O)C(Oc1ccc2c(-c3ccccc3)cc(=O)oc2c1)c1ccccc1 (centres undefined) | -15% | -13%
CCC(C(=O)NCc1ccccn1)n1c2ccccc2c2nc(=O)cc(C)n21 (centres undefined) | -6% | -9%
CC(Sc1nnc(-c2cccnc2)o1)C(=O)NC1CCCC1 (centres undefined) | -1% | -14%
O=C(CCCNC(=O)/C(=C/c1ccccc1F)NC(=O)c1ccccc1)OCc1ccccc1 | -7% | i
CSc1nc2ccc(NC(=O)CS(=O)(=O)c3ccccc3)cc2s1 | ? | ?
CCOC(=O)c1cnc2c(ccc3ccccc32)c1Nc1ccc(OCC)cc1 | 1% | -9%
NC(=O)CC1(c2ccccc2)CCCCC1 | -12% | -14%
CC1CCCCC1NC(=O)c1c(O)nc2ccccn2c1=O (centres undefined) | -11% | i
Cc1ccc(C(=O)NCCCNC(=O)COc2ccc(Cl)cc2)cn1 | -13% | i
O=c1cnn(Cc2ccc(Cl)c(Cl)c2)c2ccccc12 | ? | ?

In a second layout: results already given
Structure,VACV Venus inh,VACV mCherry inh
CCOC(=O)C(Oc1ccc2c(-c3ccccc3)cc(=O)oc2c1)c1ccccc1 (centres undefined),-15%,-13%
CCC(C(=O)NCc1ccccn1)n1c2ccccc2c2nc(=O)cc(C)n21 (centres undefined),-6%,-9%
CC(Sc1nnc(-c2cccnc2)o1)C(=O)NC1CCCC1 (centres undefined),-1%,-14%

Other compounds
SMILES | VACV Venus inh | VACV mCherry inh
Cc1ccc(C2NNC(=O)C2NC(=O)c2ccccc2)cc1 (centres undefined) | -19% | .
O=C(c1cn(-c2ccccc2)nc1-c1ccc(Br)cc1)N1CCOCC1 | -23% | -1%
Brc1ccc(-n2c(SCc3nc4ccccc4[nH]3)nnc2-c2ccncc2)cc1 | 0% | -17%
Cc1nnc(C)n1/N=C/c1ccc(-c2ccccc2)cc1 | -8% | .
COc1ccc(NCC(=O)N/N=C(\C)c2cc3ccccc3o2)cc1 | -8% | -25%
CCc1ccc(CN2CCC(Oc3ccc(C(=O)N4CCCCC4)cc3)CC2)cc1 | -17% | -17%
Cc1ccc2cc(C(c3nnnn3C3CCCC3)N(Cc3ccccc3)Cc3ccco3)c(=O)[nH]c2c1 (centres undefined) | -18% | -10%
O=C(O)CSc1nc(-c2ccccc2)nc2c1oc1ccccc12 | -11% | -26%
COc1ccc(NC(=S)N2CCN(C/C=C/c3ccccc3)CC2)cc1OC | ? | -17%[1.46 µM]
COc1ccc(-c2nn3c(=O)cc(CN4CCN(C(=O)COc5ccc(F)cc5)CC4)nc3s2)cc1 | -9% | -16%
O=C1/C(=C/c2cccnc2)Cc2ccc(Cl)cc21 | -7% | -18%
